D2 PAM: Beta-Arrestin HTS for Positive Allosteric Modulators of the Human D2 Dopamine Receptor: Potentiators | D(2) dopamine receptor (Homo sapiens), P14416 | potentiation, % (concentration not given with the values) | 360,000 compounds, 0.23% hits | AID 624464, 2012 | DiscoveRx D2 beta-arrestin cells, luminescence, 90 min; 100% = 57 uM dopamine signal; active = potentiation of 50% or more; inconclusive = 30% to 50%; inactive = 30% or less;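 also: tested on top of an EC20 dose of dopamine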
Target sequence (P14416 whole entry, looked up): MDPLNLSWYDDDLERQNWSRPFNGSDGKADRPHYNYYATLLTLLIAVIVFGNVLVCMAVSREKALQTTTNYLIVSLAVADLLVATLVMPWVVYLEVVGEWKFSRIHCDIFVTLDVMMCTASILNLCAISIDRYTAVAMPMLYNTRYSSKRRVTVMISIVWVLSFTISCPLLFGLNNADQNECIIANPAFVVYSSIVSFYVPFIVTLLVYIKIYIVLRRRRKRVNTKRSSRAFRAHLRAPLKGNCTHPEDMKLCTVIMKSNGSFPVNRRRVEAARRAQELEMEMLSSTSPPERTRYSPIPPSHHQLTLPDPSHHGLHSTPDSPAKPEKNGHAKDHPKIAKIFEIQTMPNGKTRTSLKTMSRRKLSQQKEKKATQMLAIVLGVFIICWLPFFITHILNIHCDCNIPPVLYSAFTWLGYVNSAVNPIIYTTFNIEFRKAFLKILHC
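PathHunter D2 cells, attached overnight at 37 deg C, received compound in DMSO plus dopamine at EC20 (50 nM final) for 90 min at 37 deg C. Beta-arrestin recruitment was read as luminescence after 1 h with detection reagent at ambient temperature.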
PINK1 expr mod: A Quantitative High throughput Screen to Identify Chemical Modulators of PINK1 Expression; PINK1 immunofluorescence, high-content cytometry, 24 h; AID 624263, 2012; 410,000 compounds, 0.2% hits; Potency, µM (highest dose often 76.6 µM), without a hit: at the top dose activation (PINK1 increase), hits mostly activators; active = well fitted activation curve with a large enough effect; inconclusive = small, poorly fitted or top-dose-only effect; inactive = flat fitted curve, though single readings scatter; cell line not stated here;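 also: potency is read from the fitted curve at half-maximal effect; % of control where 0% means no effect; nearly all actives have a fitted effect of over 65% in size; a mitochondrial uncoupler was the plate control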
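Measures PINK1 amount and localization on or inside mitochondria by immunofluorescence. Stable cells get compounds at 5 concentrations for 24 hours before fixation and staining; CCCP controls included.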
CtBP-E1A inh: qHTS Assay for Inhibitors of the CtBP/E1A Interaction. 340,000 compounds, 0.49% hits. AlphaScreen GST-E1A/His-CtBP binding, 1536-well; hits give low values; control for the full effect not named in the record. activity change, % (test concentration not listed). CtBP / adenovirus E1A interaction (AlphaScreen); in the data active means activity change below about -65%; inconclusive means about -30% to -65%; inactive means above about -30%; also: % is scaled to controls: 0 for no effect and ±100 for the full control effect
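In 5 uL wells, 23 nL compound meets equimolar GST-E1A and His-CtBP (5X stock 125 nM each) for 2 h, 37 °C. Beads (5X, 50 ug/mL) then 1 h, 37 °C, dark.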
D2 agonist: Beta-Arrestin HTS for Positive Allosteric Modulators of the Human D2 Dopamine Receptor: Agonists; D(2) dopamine receptor (Homo sapiens), P14416; DiscoveRx PathHunter D2 beta-arrestin, luminescence, 90 min; 100% = 57 uM dopamine signal; activation, % (no concentration beside the values); 360,000 compounds, 0.084% hits; AID 624465, 2012; in the data active = activation above about 40%; inconclusive = about 15% to 40%; inactive = below about 15%; also: compound concentration not given in the record; the text of the record calls up to 30% inactive
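DiscoveRx PathHunter D2 beta-arrestin cells (2,100/well) attached overnight, then compound-stimulated 90 min at 37 C in HBSS/10 mM HEPES/0.1% Tween-20 buffer; beta-galactosidase complementation read by luminescence after 1 h at ambient temperature. Dopamine 57 uM final (EC100) as control.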
TRPML1 agonist: qHTS for Agonists of the Human Mucolipin Transient Receptor Potential 1 (TRPML1); AID 624414, 2012; TRPML1-expressing cells, Ca2+ dye fluorescence, FDSS; host cell line not named in the record; reference of the full effect not given here; 410,000 compounds, 0.12% hits; activation, % (test concentration not listed); in the data active = activation above about 50%; inconclusive = about 30% to 50%; inactive = below about 30%; also: 0% is about no effect; the text of the record puts the active cut at 80%
Target sequence (Q9GZU1 whole entry, looked up): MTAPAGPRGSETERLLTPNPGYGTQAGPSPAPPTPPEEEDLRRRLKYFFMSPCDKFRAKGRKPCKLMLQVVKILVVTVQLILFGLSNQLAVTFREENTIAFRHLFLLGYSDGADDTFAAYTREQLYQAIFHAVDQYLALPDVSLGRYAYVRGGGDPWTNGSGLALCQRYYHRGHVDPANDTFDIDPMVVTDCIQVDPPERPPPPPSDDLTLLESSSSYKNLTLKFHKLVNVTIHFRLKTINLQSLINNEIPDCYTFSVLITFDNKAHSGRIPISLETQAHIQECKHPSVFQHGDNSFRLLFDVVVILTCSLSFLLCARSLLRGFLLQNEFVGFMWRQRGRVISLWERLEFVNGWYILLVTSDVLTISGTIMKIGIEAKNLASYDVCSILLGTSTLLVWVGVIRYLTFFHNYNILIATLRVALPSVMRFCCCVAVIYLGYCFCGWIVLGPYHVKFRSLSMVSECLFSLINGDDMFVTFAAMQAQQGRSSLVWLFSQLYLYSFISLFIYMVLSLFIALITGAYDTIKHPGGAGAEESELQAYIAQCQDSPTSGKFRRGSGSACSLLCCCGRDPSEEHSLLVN
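In this qHTS format, compounds were pin-transferred onto Ca8-dye-loaded TRPML1-DL cells induced with Tet overnight, and intracellular Ca2+ fluorescence was recorded kinetically for 110 s after a 10 s baseline. A subsequent 4uM final 54-4 (EC80) addition followed by a second 110 s read served as the antagonist phase.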
Six1-Eya2 inh: qHTS Assay for Inhibitors of the Six1/Eya2 Interaction. Homeobox protein SIX1 (Homo sapiens) + Protein phosphatase EYA2 (Homo sapiens), …. AlphaScreen GST-Six1/His-Eya2 binding, biochemical; hits give low values; control for the full effect not named in the record. activity change, % (test concentration not listed). 360,000 compounds, 0.56% hits; in the data active = activity change below about -65%; inconclusive = about -30% to -65%; inactive = above about -30%; also: % is scaled to controls: 0 for no effect and ±100 for the full control effect
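Compounds are tested against tagged Six1 and Eya2 proteins bridged by glutathione donor and nickel acceptor beads; after a one-hour incubation at 37 °C without light, AlphaScreen emission is recorded.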
Active calls of the source: *; u = inconclusive; x = no result given; & = joins results of further samples; [ ] = another dose, or the depositor's remark.

Every second line gives: D2 PAM	PINK1 expr mod	CtBP-E1A inh	D2 agonist	TRPML1 agonist	Six1-Eya2 inh
CC(OC(=O)Cc1coc2ccc3ccccc3c12)C(=O)Nc1ncc(Cl)cc1Cl (stereo not drawn)
    8	4.2%	3	0.6	-0.1	-11
C[C@@H]1CN([C@@H](C)CO)S(=O)(=O)c2ccc(C#CC(C)(C)O)cc2O[C@H]1CN(C)C(=O)C1CCCCC1
    6	2.1%	24	6.1	-0.5	20
CN1C(=O)CC2(CC(=O)N(Cc3ccccc3)C2)C1=O (stereo not drawn)
    -6	-1.1%	4	-1.5	0.0	4
CC(=O)Nc1ccc(S(=O)(=O)NNC(=O)COc2ccc(C(C)(C)C)cc2)cc1
    -21	-1.9%	8	-0.1	0.4	-19
COc1cc(/C=N/Nc2nc(=O)[nH]nc2C)cc([N+](=O)[O-])c1O
    -17	-0.6%	x	-8.0	0.9	u
CC(NCCc1ccc(O)cc1)C(O)c1ccc(O)cc1 (stereo not drawn)
    -13	-0.8%	3	-1.4	0.0	5
CNC(=S)NNC(=O)c1cccs1
    -12	0.0%	3	-5.1	0.3	5
CC(C)C[C@H]1CN=C(Nc2ccccc2)N1CC1CCC(C(C)(C)C)CC1 (stereo partly drawn)
    -20	-2.0%	-4	-2.9	3.9	-7
COC(=O)c1cnn(-c2nc3c(C)cccc3s2)c1C
    -4	3.4%	0	-4.6	-0.3	1
Cc1cc(C)cc(C(=O)Nc2nnc(SCC(=O)NCC3CCCO3)s2)c1 (stereo not drawn)
    -4	3.0%	3	-5.8	0.0	-1
CCc1nc2ccc(C(=O)Nc3nnc(C)s3)cc2nc1CC
    0	1.9%	x	7.5	-0.1	-5
CCOC(=O)CSc1nnc(Cc2ccccc2)n1Cc1ccco1
    -8	0.8%[38.3 µM]	5	-1.1	3.7	-1
COc1ccc(C(=O)NCC(=O)N/N=C/c2ccc([N+](=O)[O-])s2)cc1OC
    2	22%	-26	0.0	-0.1	-9
Cc1cccc(NC(=O)C(=O)NCC2CCCN2S(=O)(=O)c2cccs2)c1 (stereo not drawn)
    -15	-0.3%	-8	2.2	-0.1	-4
CC(CCc1ccccc1)NC(=O)CNC(=O)COc1ccccc1 (stereo not drawn)
    -4	1.3%	-9	-2.9	0.7	-6

Among those listed so far, these contain nitrogen in an aromatic ring.
Every second line gives: D2 PAM	PINK1 expr mod	CtBP-E1A inh	D2 agonist	TRPML1 agonist	Six1-Eya2 inh
CC(OC(=O)Cc1coc2ccc3ccccc3c12)C(=O)Nc1ncc(Cl)cc1Cl (stereo not drawn)
    8	4.2%	3	0.6	-0.1	-11
COc1cc(/C=N/Nc2nc(=O)[nH]nc2C)cc([N+](=O)[O-])c1O
    -17	-0.6%	x	-8.0	0.9	u
COC(=O)c1cnn(-c2nc3c(C)cccc3s2)c1C
    -4	3.4%	0	-4.6	-0.3	1
Cc1cc(C)cc(C(=O)Nc2nnc(SCC(=O)NCC3CCCO3)s2)c1 (stereo not drawn)
    -4	3.0%	3	-5.8	0.0	-1
CCc1nc2ccc(C(=O)Nc3nnc(C)s3)cc2nc1CC
    0	1.9%	x	7.5	-0.1	-5
CCOC(=O)CSc1nnc(Cc2ccccc2)n1Cc1ccco1
    -8	0.8%[38.3 µM]	5	-1.1	3.7	-1

Later entries:
Every second line gives: D2 PAM	PINK1 expr mod	CtBP-E1A inh	D2 agonist	TRPML1 agonist	Six1-Eya2 inh
CCCC(C(=O)NC1CCCCC1)N(Cc1ccco1)C(=O)CNS(=O)(=O)c1ccccc1 (stereo not drawn)
    -13	-1.5%	-3	-2.5	1.0	2
Cc1csc(CNC(=O)C2CCC(=O)N(CCc3cccc(F)c3)C2)n1 (stereo not drawn)
    19	0.6%	5	-2.8	0.4	1
N#Cc1nc(COc2cccc(Cl)c2)oc1NCc1ccco1
    -2	14%	-1	-2.9	-0.7	-17
CCn1c(SCC(=O)c2ccccc2)nnc1-c1cccs1
    2	-3.7%[38.3 µM]	1	-2.3	-0.6	1
Cc1ccc(-c2nnn(CC(=O)N(Cc3cccs3)C(C(=O)NCC3CCCO3)c3ccco3)n2)o1 (stereo not drawn)
    -2	5.5%	7	-1.4	0.2	8
COCCn1nnnc1C(c1cccs1)N1CCN2CCCC2C1 (stereo not drawn)
    -6	-1.7%	-5	-4.8	1.3	5
C=CCN(CC=C)C(=O)Nc1cc(Cl)ccc1OC
    -11	-3.6%[38.3 µM]	6	0.2	2.8	4
Cc1ccc(-c2cc(Cc3cccs3)c(=O)[nH]n2)cc1
    -2	-1.5%	-9	-4.7	3.5	-2
O=C(NCCO)C(=O)NCC1CCCN1S(=O)(=O)c1cccs1 (stereo not drawn)
    -7	1.7%	4	2.5	-0.3	8
O=c1c2ccccc2n2nnnc2n1-c1ccccc1
    -8	-1.0%	3	-1.9	-0.8	8
CCNc1nc(Oc2ccc(=O)n(-c3ccccc3)n2)nc(N(C)C)n1
    u	0.1%&-1.0%	-1	-3.1	-0.1&-0.6	-2
Cc1cc(C)n2c(=O)[nH]nc2c1
    -1	-0.8%	1	0.6	-0.7	9
O=C(NN=C1CCCCCC1)c1c[nH]c2ccccc12
    -3	1.3%	0	-0.3	-0.3	-2
Cc1ccccc1NP1(=O)OCCCN1Cc1ccccc1Cl (stereo not drawn)
    3	0.3%	-10	-4.0	0.3	1
COc1cc(C(=O)N(Cc2cc3cc(C)ccc3[nH]c2=O)CC2CCCO2)cc(OC)c1OC (stereo not drawn)
    3	0.2%	1	1.3	0.3	2
NC(=O)N1CCN(C(=O)c2ccco2)CC1
    11	2.0%	6	-2.8	-1.1	3
COC(=O)Cc1c(C)c2ccc(OCC(=O)NC3CCS(=O)(=O)C3)cc2oc1=O (stereo not drawn)
    -6	-0.5%	5	4.7	1.4	5
COc1ccc(Cl)cc1S(=O)(=O)N(C)CC(=O)N1CCOCC1
    -5	2.5%	-20	3.5	0.3	-5
O=C(O)CNC(=S)N(Cc1ccccc1)Cc1cccs1
    -4	-0.9%	13	0.9	-0.2	9
COc1ccc(S(=O)(=O)Nc2cccc3c2O[C@H](CN(C)C(=O)Nc2ccc4c(c2)OCO4)[C@@H](C)CN([C@H](C)CO)C3=O)cc1
    -7	1.0%	0	-1.5	-0.2	-1
OCCC1CN(Cc2nc3c(s2)CCCC3)CCN1Cc1ccccc1 (stereo not drawn)
    -8	1.7%	6	-0.7	1.0	3
COc1ccccc1OCC(=O)Nc1ccc(S(=O)(=O)Nc2cc(C)on2)cc1
    -8	-1.1%	0	-1.0	-0.6	-22
Oc1ccccc1-c1cc(-c2ccco2)[nH]n1
    -2	1.6%[38.3 µM]	-10	-0.9	0.4	-12
COc1ccc2c(c1)CCC/C2=N\NC(=O)c1ccoc1C
    -26	1.0%	-2	-2.3	1.2	-1
CC1(C(=O)NCc2ccc(Cl)cc2)CCN1C(=O)Cc1cccc2ccccc12 (stereo not drawn)
    2	1.6%	-17	1.5	-0.3	-1
Cc1cc(C(C)(C)C)oc1C(=O)N1CCN(C(=O)c2oc(C(C)(C)C)cc2C)CC1
    2	1.6%	1	-1.7	2.0	-11
Oc1ccc(CNc2ccccc2)c2cccnc12
    5	u	-94*	1.3	-0.9	-89*
O=C(Nc1cccc(F)c1)Nc1ccnn1C1CCN(C(=O)c2ccccn2)CC1
    9	1.0%	-2	3.6	0.2	-5
CN(C(=O)CN1C(=O)NC(C)(c2cccc(Br)c2)C1=O)C1CCCCC1 (stereo not drawn)
    6	-0.2%	1	-2.6	0.7	3
c1ccc(CN2CCN(CCCNc3ccc4nnc(-c5ccccc5)n4n3)CC2)cc1
    -4	0.2%	-27	-3.7	-1.2	-69*
COCCNC(=S)N1CCN(c2cccc(C)c2C)CC1
    -6	1.3%	-21	u	3.5	-5
Cc1ccccc1OCC(O)Cn1c2ccccc2c2ccccc21 (stereo not drawn)
    3	x	9	-2.3	2.4	11
COc1cc(C(=O)c2ccccc2Cl)c([N+](=O)[O-])cc1OC
    2	0.6%	-4	-1.8	1.1	-12
COc1ccc(N2CCN(C(CNC(=O)c3ccco3)c3ccco3)CC2)cc1 (stereo not drawn)
    -6	-9.8%	-17	-1.3	0.8	-3
O=C(N/C=N/OCc1cccc(C(F)(F)F)c1)N1OC[C@@H]2COc3ccc4ccccc4c3[C@@H]21
    -2	u	-16	-0.3	0.8	1
Cc1cc(C)nc(N/N=C/c2ccccc2)n1
    -5	3.6%[38.3 µM]	6	-2.6	-0.3	2
CC(NC(=O)CCCn1cc([N+](=O)[O-])cn1)c1ccccc1 (stereo not drawn)
    0	-1.3%	0	-3.7	0.6	17
Cc1oc(-c2ccc(F)cc2)nc1CN1CCCC(C(=O)N2CCOCC2)C1 (stereo not drawn)
    -15	1.5%	-1	3.2	1.2	0
N#Cc1cccc(C#N)c1NCC1CCCO1 (stereo not drawn)
    -4	0.2%	x	-0.7	2.0	-1
CCOCCCn1c(=N)c(C(=O)NCCN2CCOCC2)cc2c(=O)n3cccc(C)c3nc21
    -25	1.4%	-25	-5.1	-0.1	-28
O=C(CN1C(=O)c2ccc([N+](=O)[O-])cc2C1=O)Nc1nccs1
    9	3.4%	0	-2.7	-0.7	-18
Cc1ccc(N2C(=O)CC(Sc3ncccc3C(=O)O)C2=O)cc1 (stereo not drawn)
    0	-1.7%	5	8.2	-0.2	2
COC1(OC)N=C(N)C2(C#N)C(c3ccc4c(c3)OCO4)C12C#N (stereo not drawn)
    -8	-1.9%	-21	-0.9	1.7	-16
CC(C)NC(=O)c1ccc(COc2cc(Cl)ccc2Cl)o1
    -4	6.0%	5	6.1	1.9	2
CC[C@@H](C)[C@H](NC(=O)Cc1c(C)c2c(cc(C)c3c(C)c(C)oc32)oc1=O)C(=O)O
    1	1.4%	-2	2.0	-0.6	-9
CCOC(=O)COc1ccc(/C=C2/C(=O)NN(c3ccc(F)cc3)C2=O)cc1OC
    -4	3.9%	-21	-1.3	-0.3	0
O=C(/C=C/c1ccc(F)cc1)Nc1cc(S(=O)(=O)N2CCOCC2)ccc1N1CCOCC1
    -9	0.0%	3	-2.2	-0.2	-1
O=C(NCCN1CCN(Cc2ccc([N+](=O)[O-])cc2)CC1)C(=O)Nc1ccccc1
    -28	7.0%[38.3 µM]	10	-2.6	-0.5	-2
CCCCC(=O)N(c1ccc(C)c(C)c1)C1C=CS(=O)(=O)C1 (stereo not drawn)
    -1	-4.6%[38.3 µM]	3	1.1	0.2	5
Oc1ccc(-c2nccs2)cc1
    -5	-2.8%	15	-2.1	0.2	12
